Assay outcomes as filed in PubChem BioAssay.
LASV entry inh: inhibitors of Lassa virus binding or cell entry; Potency, µM (top dose mostly 37.9 µM), for inactives: at the highest dose activity change, negative = inhibition, usual class: inhibitors; AID 540256; Lassa virus pseudotype entry inhibition, cell reporter; control for the full effect not named in the record; 1.2% of 300,000 active; active means well fitted inhibition curve with a large enough effect; inconclusive means small, poorly fitted or top-dose-only effect, or effect the other way; inactive means flat fitted curve, though single readings scatter; tested in HEK293 cells; note: % is set by controls: 0 for no effect and ±100 for the full control effect; nearly all actives have a fitted effect of over 50% in size; luciferase read-out
SARS PLP yeast: blocks SARS-CoV papain-like protease in a yeast assay; S. cerevisiae expressing SARS-CoV PLpro, growth rescue; control for the full effect not named in the record; Potency, µM (top dose mostly 32.9 µM), inactives show at the top dose activity, positive = growth rescue; 0.19% of 330,000 active; AID 485353; active means well fitted rising curve with a large enough effect; inconclusive means small, poorly fitted or top-dose-only effect; inactive means no such curve, though single readings can be large or run the other way; note: 0% is about no effect; nearly all actives have a fitted effect of over 55% in size; growth read by luminescence after 48 h
2A StopGo: lowers the luciferase signal of an FMDV 2A StopGo reporter; Potency, µM (titrated, usually from 57.9 µM), for the others: at the highest dose signal change, negative = less light; human cells with a luciferase reporter of 2A StopGo recoding; control for the full effect not named in the record; 1.2% of 410,000 active; active = well fitted falling curve with a large enough effect; inconclusive = small, poorly fitted or top-dose-only effect; inactive = no such curve, though single readings can be large or run the other way; tested in HEK293T cells; note: % is set by controls: 0 for no effect and ±100 for the full control effect; nearly all actives have a fitted effect of over 45% in size; luciferase light after 4 h
Marburg entry inh: blocks Marburg virus binding to or entry into cells; Marburg virus pseudotyped entry inhibition, cell reporter; control for the full effect not named in the record; about a third of the inactives were read at about 46 µM; Potency, µM (highest dose often 37.8 µM), for the others: at the highest dose activity change, negative = inhibition, actives largely listed as inhibitors; 1.8% of 300,000 active; AID 540276; active = well fitted inhibition curve with a large enough effect; inconclusive = small, poorly fitted or top-dose-only effect, or effect the other way; inactive = flat fitted curve, though single readings scatter; tested in HEK293 cells; about a fifth of its hits are not listed in these tables; note: % is set by controls: 0 for no effect and ±100 for the full control effect; luciferase read-out
Cruzain inh noDet: inhibitors of Trypanosoma cruzi cruzain without detergent; purified cruzain, Z-FR-AMC fluorescence, no detergent; P25779; Potency, µM, for inactives: max response, negative = inhibition, usual class: inhibitors; 2.3% of 200,000 active;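 note: plate controls were enzyme without inhibitor for no effect and buffer without enzyme for full effect; nearly all actives have a fitted effect of over 40% in size; top concentration of the series not given in the record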
Target sequence (P25779 123-467 limits assumed): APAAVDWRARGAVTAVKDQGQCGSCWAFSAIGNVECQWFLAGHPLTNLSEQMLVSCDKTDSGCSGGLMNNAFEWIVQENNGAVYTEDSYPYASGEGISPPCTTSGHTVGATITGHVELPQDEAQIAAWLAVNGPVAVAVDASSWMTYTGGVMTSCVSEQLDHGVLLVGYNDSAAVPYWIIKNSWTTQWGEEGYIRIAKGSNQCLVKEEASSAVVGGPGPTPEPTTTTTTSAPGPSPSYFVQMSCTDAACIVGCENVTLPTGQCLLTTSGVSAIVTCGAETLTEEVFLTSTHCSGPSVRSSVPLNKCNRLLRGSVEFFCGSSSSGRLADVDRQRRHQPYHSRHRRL
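Purified cruzain at 1.5 nM, pre-incubated 15 min with compound at room temperature in 100 mM sodium acetate pH 5.5, 5 mM DTT, 0.00005% Triton X-100. Reaction started with 2 uM Z-FR-AMC; AMC fluorescence increase over 60 s gives rate.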
Cruzain inh Det: blocks cruzain activity in presence of Triton detergent; 0.43% of 200,000 active; AID 1478; purified cruzain, Z-FR-AMC fluorescence, 0.01% Triton; P25779; Potency, µM, for inactives: max response, negative = inhibition, actives largely listed as inhibitors;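 note: plate controls were neutral wells for no effect and buffer without enzyme for full effect; nearly all actives have a fitted effect of over 40% in size; top concentration of the series not given in the record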
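Steps: dispense cruzain (1.5 nM final) in acetate buffer pH 5.5 with DTT and 0.01% Triton X-100; pin-transfer compounds; incubate 15 min RT; add Z-FR-AMC (2 uM final); read fluorescence every 30 s, using the 60 s intensity change.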
RE007 growth inh: less growth of the S. pombe RE007 Vpr strain; S. pombe RE007 Vpr strain, BacTiter-Glo ATP luminescence, 24 h; control for the full effect not named in the record; Potency, µM (titrated, usually from 92.2 µM), inactives show at the top dose activity change, negative = less growth; 0.21% of 360,000 active; AID 651644; active = well fitted falling curve with a large enough effect; inconclusive = small, poorly fitted or top-dose-only effect; inactive = no such curve, though single readings can be large or run the other way;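 note: % is set by controls: 0 for no effect and ±100 for the full control effect; nearly all actives have a fitted effect of over 50% in size; the assay follows cell death caused by Vpr and the record does not say whether a fall means rescue or toxicity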
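Fission yeast strain RE007, carrying one chromosomally integrated HIV-1 vpr copy, was seeded at OD 0.01 in PMG+AL medium with 23 nL pinned compound. After 24 h at 30 °C and 99% humidity, viability was read by BacTiter-Glo luminescence.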
NS1 function inh: influenza NS1 inhibition; S. cerevisiae slowed by influenza A NS1, growth recovery by OD600; Potency, µM (top dose mostly 46.1 µM), for the others: top-dose activity, positive = more growth; 0.4% of 270,000 active; active means well fitted rising curve with a large enough effect; inconclusive means small, poorly fitted or top-dose-only effect; inactive means no such curve, though single readings can be large or run the other way; note: nearly all actives have a fitted effect of over 50% in size
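Compounds were scored for reversing the slow growth caused by influenza A NS1 in S. cerevisiae, measured by optical density at 600 nm. Assay medium contained 2% galactose at pH 6.0; NS1-free yeast of the same strain were the positive control.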
* hit, by the source's call; ? = inconclusive; nt = no result given; & = joins results of further samples; [ ] = remark or other dose. Unless noted, calls come from the whole dose curve; as a rule, active = well fitted curve in the direction sought with a large enough effect; inconclusive = small, poorly fitted or top-dose-only effect, or another doubt; inactive = no such curve, though single readings can be large; an effect the other way counts as inactive or inconclusive. Potency is the fitted concentration of half-maximal effect.

The line under a structure holds: SARS PLP yeast, NS1 function inh, 2A StopGo, LASV entry inh, Cruzain inh Det, Marburg entry inh, RE007 growth inh, Cruzain inh noDet
> CCOc1ccccc1NC(=O)C1C2C=CC(O2)C1C(=O)O (stereo not given)
  -7%, 0%, 11%, 2%, 6.1%, 13%, -15%, -5%
> COc1ccccc1C1(CCNC(C)c2cccs2)CCOC(C(C)C)C1 (stereo not given)
  1%, -4%, -8%, ?, nt, ?, -11%, nt
> COCc1cc(C)nc(SCC(=O)Nc2nc(C)cs2)c1C#N
  -1%, -10%, 22%, ?, nt, ?, -12%, nt
> CC(C)(C)OC(=O)N[C@@H](Cc1ccccc1)C(=O)N[C@@H](CO)[C@H](O)[C@@H]1C[C@@H]1C(=O)N1CCCC1
  14%, 4%, -19%, nt, nt, nt, 7%, nt
> O=C(COC(=O)Cn1cnc2ccccc2c1=O)NCc1ccccc1
  1%, nt, -19%, 0%, nt, 9%, 8%, nt
> CCC(=O)Nc1sc(C(=O)Nc2ccccc2F)c(C)c1C(=O)OC
  2%, -3%, 46%[activator], ?, nt, -1%[46.1 µM], 11%, nt
> CCOC(=O)c1c(CC(C)C)csc1NC(C)=O
  2%, -10%, -11%, -7%, -7.3%, ?, -24%, 0%
> O=C(O)CN(c1ccccc1)C1SC(=O)NC1=O (stereo not given)
  nt, 6%, -14%, 1%, 9.1%, 4%[46.1 µM], 0%, -1%
> CC(C)N1C(=O)C2C(C(=O)NC3CCCCC3)C3C=CC2(O3)C1C(=O)NC1CCCC1 (stereo not given)
  5%, -15%, -14%, -12%, 2.5%, 1%&1%, -8%, 4%
> Cc1ccc(-n2nc3c(c2NC(=O)c2cc4ccccc4o2)CS(=O)(=O)C3)cc1
  -2%, -1%, -4%, 2%, nt, 2%, 7%, nt
> Cc1cccc(/C=N/NC(=O)c2ccc(NC(=O)c3ccccc3C)cc2)n1
  0%, -4%, -5%, 15%[46.1 µM], nt, 1%[46.1 µM], -7%, nt
> CCOC(=O)c1c(C)[nH]c(C)c1S(=O)(=O)N1CCC(c2ccccc2)C1 (stereo not given)
  -2%, -8%, 9%, nt, nt, nt, 7%, nt
> O=C(NCC1(c2ccccc2)CCOCC1)c1cccs1
  -1%, 2%, -9%, 7%, nt, 17%[46.1 µM], 19%, nt
> Cc1sc2ncn(CC(=O)NCCCN3CC(C)CC(C)C3)c(=O)c2c1S(=O)(=O)N1CC(C)CC(C)C1 (stereo not given)
  2%, -20%, -12%, ?, nt, ?, -20%, nt
> Cc1ccc(Cn2cccc2/C=C2/C(=N)N3C=CSC3=NC2=O)cc1
  ?, 6%, -20%, ?, 7.3%, ?, 3%, -22%
> O=C(/C=C/c1ccc2c(c1)OCO2)N1CCCCC1
  -10%, -18%, 54%[activator], -2%, nt, 13%, -5%, nt
> COc1cc(C)c(S(=O)(=O)Nc2cccc(-c3ccc(N4CCCC4)nn3)c2)cc1C
  nt, nt, 14%, -19%[46.1 µM], -2.3%, nt, nt, 4%
> O=C(O)c1c(N2CCCCC2)ccc([N+](=O)[O-])c1N1CCCCC1
  0%, -2%, -22%, nt, nt, nt, -5%, nt
> Cc1ccc(S(=O)(=O)c2nc(-c3ccc(Cl)cc3)oc2N2CCCCCC2)cc1
  nt, nt, 25%, 1%[46.1 µM], -25%, ?, nt, 10%
> NC(=O)CSc1oc(-c2ccco2)nc1S(=O)(=O)c1ccccc1
  3%, 18%, 17%, -10%[46.1 µM], nt, -4%[46.1 µM], 14%, nt
> COc1ccc(CNC(=O)CSCc2cccc(Cl)c2)cc1
  -4%, -4%, -10%, -25%, -1.4%, -20%, 5%, 4%
> COc1ccc(NC(=O)c2ccccc2Sc2ccc(NC(C)=O)nc2)cc1
  -3%, nt, -8%, 5%[46.1 µM], nt, 1%[46.1 µM], 10%, nt
> N#Cc1cnc(SCC(=O)N2CCCC2)nc1N
  1%, 4%, -12%, -1%[46.1 µM], nt, ?, 1%, nt
> Cc1sc2nc(C3CC3)nc(SCC(=O)N3c4ccccc4CC3C)c2c1C (stereo not given)
  -4%, 3%, -3%, 1.8µM*, 0.5%, 4.1µM*, 17%, ?
> O=C(Nc1ccccn1)c1ccc(Cl)c([N+](=O)[O-])c1
  -1%, -3%, 18%, 0%[46.1 µM], nt, 1%[46.1 µM], -20%, nt
> COCCn1c(SCC(=O)N2CCOCC2)nnc1-c1ccncc1
  1%, 19%, 2%, 1%[46.1 µM], nt, 6%[46.1 µM], -4%, nt
> COc1cc(/C=N/NC(=O)c2cncc(Br)c2)ccc1OC(=O)c1ccc2c(c1)OCO2
  -3%, 18%, nt, nt, 7.2%, 1%, nt, ?
> Cc1ccc(N2CC(C(=O)Nc3ccc(S(=O)(=O)NCC4CCCO4)cc3)CC2=O)cc1C (stereo not given)
  16%, -3%, 9%, -11%[46.1 µM], nt, -13%[46.1 µM], 1%, nt
> CCc1nn(CC(=O)NCc2ccc(OC)c(OC)c2)c(=O)c2cc3sc(C)cc3n12
  nt, nt, -8%, nt, -1.4%, 6%[46.1 µM], nt, 26%
> Cc1cccc(Cn2nnc3c2C(=O)c2ccccc2C3=O)c1
  6%, -5%, ?, ?, -6.8%, ?, -11%[3.69 µM], 2%
> COc1cccc(-n2nnc3c(=O)n(Cc4ccccc4Cl)cnc32)c1
  6%, 16%, 19%, -15%, -2.5%, -4%, 1%, 10%
> O=C(c1cc(Cl)nc2ccccc12)N1CCCCC1
  -2%, 1%, nt, 8%, -1.9%, 3%, 7%, -5%
> Cc1ccsc1/C=N/N1CCOCC1
  0%, 9%, 23%, nt, nt, 8%[46.1 µM], -10%, nt
> CCSc1nc(-c2ccc(OC)cc2)n(-c2nc3ccccc3s2)n1
  1%, -10%, 21%, 9%, -7.3%, 17%&17%, -7%, -11%
> CSc1nc(N)nc2c1ncn2C1OC(CO)C(O)C1O (stereo not given)
  nt, nt, -10%, 21%[46.1 µM], nt, 1%[46.1 µM], -2%, nt
> CSc1ccc(-c2nc(CSCC(=O)N3CCOCC3)c(C)o2)cc1
  -1%, -16%, ?, -1%, 2.5%, -21%, -3%, ?
> CCOC(=O)Nc1ccc(S(=O)(=O)N2CCC(C)CC2)cc1
  -1%, -5%, -19%, -9%, nt, -13%[46.1 µM], -1%, nt
> Cc1cc2oc(C(=O)Nc3ccc(S(=O)(=O)Nc4ncccn4)cc3)c(C)c2cc1Cl
  0%, 13%, -18%, 12%, nt, -11%, 5%, nt
> O=Cc1ccc2noc(-c3ccc(F)cc3)c2c1
  6%, -4%, 17%, -10%, 5.6%, ?, 7%, -29%
> Brc1ccc2c(c1)CNc1c(ncnc1N1CCOCC1)O2
  -6%, -14%, ?, -19%, -6.1%, -10%&-10%, 2%, 9%
> CC(SC(C)C(=O)NN=Cc1cccc(Cl)c1)C(=O)NN=Cc1cccc(Cl)c1 (stereo not given)
  nt, nt, -16%, -8%[46.1 µM], nt, ?, 12%, nt
> CCC(CC)C(=O)NCc1ccccc1OC
  2%, 9%, 4%, 1%, 5.2%, 2%, 2%, 2%
> Cc1ccc(N(CC(=O)NCc2ccc3c(c2)OCO3)C(=O)c2csnn2)cc1
  1%, 16%, 23%, -1%[46.1 µM], nt, 23%[46.1 µM], 4%, nt
> Cc1cccc(-n2ncc3c(NC4CCCCC4)ncnc32)c1
  -11%, -13%, -32%, nt, -10%, nt, 14%, -5%
> O=C(CN1CCCCC1)N=Nc1c(O)[nH]c2ccccc12
  1%, -1%, 26%, nt, nt, nt, -14%, nt
> Cc1cnc(C(=O)Nc2nnc(C(C)C)s2)cn1
  -1%, 9%, 36%[activator], 23%, 4.4%, ?, -13%, -3%
> CCc1ccc(Nc2nnc(SCn3nnc4ccccc4c3=O)s2)cc1
  0%, -9%, 0%, -30%, -2.5%, ?, 1%, -11%
> CCOc1ccc(CO[C@@H]2O[C@H](CO)[C@@H](O)[C@H](O)[C@H]2NC(C)=O)cc1OC
  2%, 1%, 12%, -24%, nt, -36%, 0%, nt
> COc1ccccc1/C=C/C=N/NC(=O)c1cnccn1
  -1%, -6%, 50%[activator], 5%, nt, 9%[46.1 µM], -15%, nt
> COc1ccc(-n2nc(C(=O)NCC3CCCO3)c3ccccc3c2=O)cc1 (stereo not given)
  0%, 3%, -26%, -1%[46.1 µM], nt, 14%[46.1 µM], 2%, nt
> C/C(CC(=O)Nc1ccc(OCc2ccccc2)cc1)=N\NC(=O)C(=O)Nc1ccccc1C
  -3%, -5%, 10%, -10%, -4.1%, -20%[46.1 µM], -9%, -22%
> O=C(NCCN1CCOCC1)c1ccc(Cl)c(S(=O)(=O)N2CCCC2)c1
  8%, 4%, -16%, -11%, nt, -8%, 2%, nt
> CC(C)C(=O)N=C1SC2CS(=O)(=O)CC2N1Cc1ccccc1 (stereo not given)
  -11%, 3%, -14%, 11%, -2.2%, 6%, 0%, -13%
> CC(C)C[C@H](NC(=O)c1nc[nH]c1C(=O)N[C@@H](CCCCNC(=O)OC(C)(C)C)C(=O)OC(C)(C)C)C(=O)OC(C)(C)C
  -1%, -9%, ?, nt, nt, nt, -3%, nt
> Cc1cc(C)c(NC(=O)COC(=O)C2CCC(=O)N2)c(C)c1 (stereo not given)
  0%, 5%, -21%, -1%, nt, ?, -20%, nt
> N#Cc1ccc(NC(=O)COC(=O)CCNS(=O)(=O)c2ccccc2)cc1
  -1%, 6%, 2%, -3%, -3.1%, 4%, -1%, -11%
> CN1CCN(c2nc3c(S(=O)(=O)c4ccccc4)nnn3c3ccsc23)CC1
  nt, nt, -7%, 6%[46.1 µM], -0.8%, nt, nt, 19%
> COC(=O)C1=C(C)N(C2CCCCC2)C(=O)/C1=C\c1cccs1
  8%, nt, -12%, -11%[46.1 µM], nt, 8%[46.1 µM], -25%, nt
> O=C(NCCCn1ccnc1)c1ccccc1Cl
  12%, 1%, -10%, 22%, nt, ?, -13%, nt
> Cc1ccc(C(C(=O)NC2CCCC2)N(Cc2cccs2)C(=O)c2csnn2)o1 (stereo not given)
  nt, nt, 7%, -8%, nt, 10%, 8%, nt
